KCNQ2 enhance = potentiators of rat KCNQ2 potassium channel; Potassium voltage-gated channel subfamily KQT member 2 (Rattus norvegicus), O88943; CHO-K1 KCNQ2, FluxOR thallium flux fluorescence; active compounds read high; B-score at 10 µM; 310,000 compounds, 0.54% hits;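 active = fluorescence ratio B-score at least 3 SD of library B-scores, with initial fluorescence B-score within 3 SD, cut at about 5.3 in these data; same plate scores as AID 2156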;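 note: B-score of peak minus minimum over baseline fluorescence ratio after K+ and Tl+ stimulus; positive B-score means potentiation of KCNQ2 with more thallium influx and brighter signal; only the inactives scoring about 0 or higher are listed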
Target sequence (O88943 whole entry, looked up): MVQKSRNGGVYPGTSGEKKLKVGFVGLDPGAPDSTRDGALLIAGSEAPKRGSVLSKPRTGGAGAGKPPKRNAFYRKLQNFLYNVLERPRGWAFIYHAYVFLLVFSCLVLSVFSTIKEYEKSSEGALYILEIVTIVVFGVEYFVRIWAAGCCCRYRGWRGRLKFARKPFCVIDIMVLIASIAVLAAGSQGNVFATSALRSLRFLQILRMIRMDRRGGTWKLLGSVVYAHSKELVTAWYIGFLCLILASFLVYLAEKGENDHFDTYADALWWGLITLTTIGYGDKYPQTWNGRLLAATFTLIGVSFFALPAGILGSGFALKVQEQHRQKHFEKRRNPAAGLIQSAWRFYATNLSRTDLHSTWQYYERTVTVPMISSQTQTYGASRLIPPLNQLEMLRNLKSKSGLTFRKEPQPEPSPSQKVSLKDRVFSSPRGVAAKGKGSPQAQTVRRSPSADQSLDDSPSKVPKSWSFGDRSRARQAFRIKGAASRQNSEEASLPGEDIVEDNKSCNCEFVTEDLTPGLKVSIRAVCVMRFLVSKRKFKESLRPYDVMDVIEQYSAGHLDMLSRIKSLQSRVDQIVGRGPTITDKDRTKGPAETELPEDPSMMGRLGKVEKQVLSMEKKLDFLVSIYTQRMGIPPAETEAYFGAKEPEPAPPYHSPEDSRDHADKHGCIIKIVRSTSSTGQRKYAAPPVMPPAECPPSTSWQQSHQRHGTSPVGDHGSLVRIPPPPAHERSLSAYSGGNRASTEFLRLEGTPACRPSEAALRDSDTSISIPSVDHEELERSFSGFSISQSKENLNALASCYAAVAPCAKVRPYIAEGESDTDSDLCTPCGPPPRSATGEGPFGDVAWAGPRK
KCNQ2 enhance baseline = also measured in KCNQ2 enhance; calls as there; B-score; compound at 10 µM; measured here: initial fluorescence intensity artifact check;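 brightness before thallium and not channel activity; 0 = typical well and far values either way flag optical interference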
Active calls of the source: *. Only part of the results is shown, so the mix of outcomes need not match the whole.

molecule	KCNQ2 enhance baseline	KCNQ2 enhance
O=C(COC(=O)c1c(F)cccc1F)c1ccc[nH]1	-0.85	0.67
FC(F)Oc1ccccc1C1CC(c2ccc(Br)s2)Nc2ncnn21 (stereo not given)	1.1	0.47
CCCCCNC(=O)C(=O)C1C(=O)Nc2ccccc21 (stereo not given)	0.37	0.24
Cc1cc(-c2nnc(SCC(=O)Nc3nc(-c4ccccc4)cs3)o2)no1	0.45	0.49
O=C1COc2ccc(C(=O)c3ccccc3C(=O)NCc3ccco3)cc2N1	1.24	0.22
OCC1(CCc2ccccc2)CCN(Cc2ccc3nsnc3c2)CC1	0.21	0.07
CCCCn1c(Cc2ccccc2)nnc1SCC(=O)Nc1cc(C)on1	-1.39	0.86
CCOc1ccc(S(=O)(=O)Nc2ccc(C(=O)N3CC(C)OC(C)C3)cc2)cc1 (stereo not given)	-0.71	1.44
Cc1ccc(SCC(=O)NNC(=O)C2CCCCC2)cc1	1	1.16
O=C(c1ccc(-c2ccccc2)cc1)N1CCN(c2ccccn2)CC1	0.44	0.25
CC(=O)c1cccc(NC(=O)NC(C)c2ccc3c(c2)OCO3)c1 (stereo not given)	1.51	1.75
CC(=O)C1=C(O)C(=O)N(Cc2cccnc2)C1c1ccccc1Cl (stereo not given)	-0.58	0.15

molecule	KCNQ2 enhance baseline	KCNQ2 enhance
N#Cc1ccc(Oc2ncccn2)cc1	-0.44	1.73
CCOc1ccc(-c2ccc(C=O)o2)c([N+](=O)[O-])c1	-0.94	1.27
CCCCc1cc(=O)oc2c(C)c(OCC(=O)NCc3ccccn3)ccc12	-0.03	1.68
CC(OC(=O)Cc1ccc(F)cc1)C(=O)NCc1ccc2c(c1)OCO2 (stereo not given)	-0.84	0.4
Cc1ccc(C(=O)CSc2nc(C(C)C)nc3ccccc23)cc1	-0.5	3.89
COc1cc(OC)cc(C(=O)NCC2CCCN(C(=O)c3csc(C(C)C)n3)C2)c1 (stereo not given)	-1	1.06
CCOC(=O)Cc1csc(SCc2nc3ccccc3c(=O)[nH]2)n1	-0.44	1.55
O=C(O)CN1C(=O)/C(=C2\C(=O)N(Cc3ccccc3Cl)c3ccccc32)SC1=S	-0.64*	6.15*
COCCNC(=O)C1CC2Cn3c(nc4cc(Cl)c(Cl)cc43)C2N1C (stereo not given)	-1.16	1.77
COc1cccc(CN2C[C@]34C=C[C@@H](C[C@@H]3S2(=O)=O)O4)c1	-0.27	0.37
O=C(NC1(C(=O)NC2CCCC2)CCCCC1)c1ccc2c(c1)OCO2	0.15	1.13
O=C1C2C3CC(C(Br)C3Br)C2C(=O)N1c1nccs1 (stereo not given)	0.29	1.25

molecule	KCNQ2 enhance baseline	KCNQ2 enhance
C=C1C(C(=O)N2CCN(C)CC2)C1C(=O)N1CCN(C)CC1 (stereo not given)	0.19	0.22
CSc1nc(C)cc(/C=C\c2ccccc2)c1C#N	1.81	0.36
O=C(NC1=NCCS1)c1sc2cc(Cl)cc(Cl)c2c1Cl	0.34	2.92
OCCCn1c(C(CO)Nc2nc(-c3ccc(Cl)cc3)cs2)nc2ccccc21 (stereo not given)	-0.8	0.02
CC(C)CN(C(=O)COC(=O)CNC(=O)c1ccccc1F)C1CCS(=O)(=O)C1 (stereo not given)	0.94	1.54
CN(CC/C=C1/c2ccccc2CSc2ccccc21)CCCO	-0.66	0.02
CCCCOC(=O)C1=C(C)NC2=C(C(=O)CCC2)C1c1cc(OC)ccc1OC (stereo not given)	0.12	1.16
C=CCNC(=O)c1onc(CSc2ccc(C)c(C)c2)c1C(=O)O	0.09	0.73
O=C(Cn1cnc2c(cnn2-c2ccccc2)c1=O)N1CCN(c2ccc(F)cc2)CC1	0.93	1.98
O=C(Cn1nnc(-c2ccccc2)n1)N/N=C/c1cccc([N+](=O)[O-])c1O	0.81	0.01
Cc1cc(O)c(C(C)C)cc1N=C1CSC(=O)N1	-1.12	0.32
CCN=C1NN=C(c2c[nH]c3ccccc23)CS1	0.62	1.71

molecule	KCNQ2 enhance baseline	KCNQ2 enhance
CCn1cc(/C=C/C(=O)Nc2ccc(C)cc2Br)cn1	-2.2	0.56
CCc1nnc(NC(=O)COC(=O)CN2C(=O)c3ccccc3C2=O)s1	-1.29	0.53
CC1CCc2nn(CC(=O)NCCCN3CCCCC3)cc2C1 (stereo not given)	-2.69	0.17
O=C(O)c1ccccc1C(=O)NC1CCCCNC1=O (stereo not given)	0.18	0.23
CCN(c1ccccc1)S(=O)(=O)c1cc(NC(=O)Nc2ccccc2C#N)ccc1Cl	-0.03	0.2
COC(=O)NNC(=O)C12CC3CC(CC(C3)C1)C2	2.57	1.32
CC(C)(C)C1CCc2c(sc3nc(SCC(=O)O)nc(N)c23)C1 (stereo not given)	2.95	4.02
CCCc1cc(=O)oc2cc(OCC(=O)NCCc3c[nH]c4ccc(OC)cc34)ccc12	-0.78	1.71
Cc1ccc(C)c(NC(=S)NNC(=O)c2csc3c2CCC(C)C3)c1 (stereo not given)	0.03*	6.62*
Cc1nc2ccccc2c(C)c1CC(=O)OC(C)C(=O)NC1(C#N)CCCCC1 (stereo not given)	-0.97	1.53
COc1ccc(C)cc1NC(=O)c1ccc(NS(=O)(=O)c2cccs2)cc1	-0.74	0.74
Cc1ccccc1-n1c(O)cc(=O)[nH]c1=S	-0.08	1.46

molecule	KCNQ2 enhance baseline	KCNQ2 enhance
O=C(CN1CCN(Cc2cccc(F)c2)CC1)Nc1ccccc1F	-0.5	1.96
O=C(CCn1c(=O)sc2ccccc21)NC1=NCCS1	0.03	1
O=C(CSC(=S)N1CCOCC1)Nc1nc(-c2ccccc2)c(-c2ccccc2)o1	0.14	0.08
COc1ccc(N2CCN(C(=O)c3cn(C)c4ccc(S(=O)(=O)N5CCOCC5)cc4c3=O)CC2)cc1	0.04	0.48
CC1CC1C(=O)Nc1nc(-c2ccc(Cl)s2)cs1 (stereo not given)	1.43	1.06
Cc1ccc(CN2CCN(Cc3cccc(OCCO)c3)CC2CCO)o1 (stereo not given)	0.04	0.77
CN1CCN(S(=O)(=O)c2ccc(Br)c3ccccc23)CC1	1.29	0.08
CC1CCN(C(=S)NC(=O)c2ccccc2Br)CC1	0.68	1.7
CS(=O)(=O)N(CCc1ccccc1)CC(=O)NCc1ccco1	2.63	0.64
O=C(Nc1nnc(SCc2c(Cl)cccc2Cl)s1)c1cccc([N+](=O)[O-])c1	0.22	0.23
COCCCN(C(=S)Nc1cc(Cl)cc(Cl)c1)C(C)c1ccncc1 (stereo not given)	1.21	0.36
Cc1cccc(C)c1NC(=O)NC1(C(=O)N2CCOCC2)CCCCC1	1.07	0.14

molecule	KCNQ2 enhance baseline	KCNQ2 enhance
COc1ccc(C(C)N2CC34C=CC(O3)C(C(=O)O)C4C2=O)cc1 (stereo not given)	1.22	0.43
COCC(=O)NC1CCN(S(=O)(=O)c2ccc(C(=O)O)cc2)CC1	0.79	0.1
CC1=C/C(=C(/c2cc(C)c(O)c(Br)c2)c2ccccc2S(=O)(=O)O)C=C(Br)C1=O	-0.47	0.24
CCc1ccccc1NC(=O)Cn1nnc(-c2cccs2)n1	0.34	1.14
C=CCn1c(SCC(=O)Nc2ccc(C)cc2C)nnc1-c1cccnc1	-1.2	2.29
C/C=C/c1ccc(OCCCCOc2ccccc2F)c(OC)c1	-1.93	0.62
CCN(CC)C(=O)Sc1cccc2cccnc12	0.72	0.03
O=C(NCC1CCCO1)c1ccc(NC(=O)C2CCCCC2C(=O)O)cc1 (stereo not given)	0.08	0.67
COc1cc(CNC(C)(C)C)ccc1OCC(=O)NC(C)(C)C	0.11	0.48
O=C(Cc1ccccc1)N/N=C/c1cccc([N+](=O)[O-])c1	0.54	0.41
Cc1ccc(NC(=O)C2CCN(S(=O)(=O)c3ccc4[nH]c(=O)ccc4c3)CC2)c(C)c1	-2.78	0.15
O=S(=O)(NC1CCCCC1)c1cccs1	-0.23	1.27

molecule	KCNQ2 enhance baseline	KCNQ2 enhance
O=C(CN(CCc1ccccc1)C(=O)CNS(=O)(=O)c1ccc(F)cc1)NCc1ccco1	-1.42	0.24
O=S(=O)(c1cccs1)N1CCC2(CC1)OCCN2S(=O)(=O)c1ccccc1	0.84	1.23
CCOC(=O)c1ccc(NC(=O)c2ccc[n+]([O-])c2)cc1	-1.38	0.05
CN1C(=O)CSC1=Nc1cccc(C(=O)O)c1	0.48	1.23
COc1cccc(/C=N/NC(=O)CSCC(=O)Nc2ccccc2)c1O	-0.13	1.35
COc1cc([N+](=O)[O-])ccc1NC(=O)COC(=O)c1n[nH]c2ccccc12	0.67	0.02
CCO[C@@H]1OC(C(N)=O)=C[C@H](C(C)(C)C)[C@H]1CCCO	-0.83	0.37
CCC(C)[C@H](NC(=O)NCc1ccccn1)C(=O)OC (stereo not given in full)	1.69	0.14
NCCCC[C@@H]1NC(=O)c2cc([N+](=O)[O-])cc(F)c2NCCCC[C@@H](C(N)=O)NC(=O)[C@H](CCC(N)=O)NC1=O	0.61	0.76
COC(=O)c1cc(OC)c(OC)cc1N=CC1=C(O)CC(C)(C)CC1=O	0.24	0.94
CC(C)(C)C(=O)CNCC(=O)C(C)(C)C	0.02	1.31
O=[N+]([O-])c1ccc(O)c(C=Nc2ccc3nc(-c4ccccc4)[nH]c3c2)c1	0	0.03

molecule	KCNQ2 enhance baseline	KCNQ2 enhance
COCCn1c(=O)[nH]c(=O)c2cc(C(=O)c3cc(OC)ccc3O)cnc21	-0.55	0.1
CCc1ccc(N2C(=O)C3CCCN3C2=S)cc1 (stereo not given)	-0.93	2.64
COCC(=O)N1CCC(n2nnc3cc(F)ccc32)CC1	0.11	0.32
Cc1cccc(OCc2nnc(SCC(=O)NC3CCCC3)n2C)c1	0.67	0.11
COC(=O)c1cc(NS(=O)(=O)c2ccc(N3CCC(C)CC3)c([N+](=O)[O-])c2)cc(C(=O)OC)c1	-1.15	0.12
COCCCNC(=O)[C@H](CSCc1ccccc1)N1Cc2ccccc2C1=O	-0.62	1.89
COc1cccc(NC(=O)CN(C)C(=O)/C=C/c2ccc3ccccc3n2)c1	-1.76	0.63
Cc1nn(CC(=O)N2CCCCC2)c(=O)c2nn(-c3ccccc3)c(C)c12	0.25	1.33
Clc1ncn(C23CC4CC(CC(C4)C2)C3)n1	1.01	0.25
Cc1cc(C)n2nc(C(=O)OCC(=O)N(C)CC(=O)Nc3ccccc3Cl)nc2n1	0.65	2.54
Cc1ccc(CNC(=O)CC2(CC3=NS(=O)(=O)c4ccccc4N3)CCCC2)cc1	-0.17	0.52
O=C(CN1CCN(C/C=C/c2ccccc2)CC1)Nc1ccccc1C(=O)NC1CC1	2.38	1.38

molecule	KCNQ2 enhance baseline	KCNQ2 enhance
CC(C)C(=O)Nc1nc2cc3c(cc2s1)OCCO3	-0.1	0.18
N=c1c2c3c(sc2ncn1N)CCCC3	-0.57	0.28
CC1CCCN(S(=O)(=O)c2ccc([N+](=O)[O-])cc2)C1 (stereo not given)	0	0.47
O=S(=O)(NCc1ccccn1)c1cc(OCC(F)(F)F)ccc1OCC(F)(F)F	-1.8	0.04
COc1ccc(S(=O)(=O)NCCCCOc2ccc(Cl)cc2)cc1	0.03	0.06
O=C(c1cccc(C(F)(F)F)c1)C1CCCN(C(=O)/C=C/c2cnc[nH]2)C1 (stereo not given)	-0.45	0.08
CCS(=O)(=O)N1Cc2ccccc2CC1C(=O)Nc1ccc(OC)cc1 (stereo not given)	0	0.03
O=C(Nc1cccc(Cl)c1)c1ccc(Cn2cc(Cl)cn2)cc1	-0.01	0.04
Nc1c(C(=O)N/N=C/c2cccnc2)oc2nc(-c3ccccc3)cc(-c3ccco3)c12	0.36	0.6
Cc1ccc2cc(CCNS(=O)(=O)c3ccc(F)cc3)c(=O)[nH]c2c1C	-0.62	1.24
Cc1ccc(-c2nnn(Cc3nc(N)nc(N4CCOCC4)n3)n2)cc1	-0.78	2.24
C=CCn1c(C)nnc1SCC(=O)c1[nH]c(C)c(C(C)=O)c1C	0.03	1.63

Of the compounds above, nine have a nitro group on carbon.
molecule	KCNQ2 enhance baseline	KCNQ2 enhance
CCOc1ccc(-c2ccc(C=O)o2)c([N+](=O)[O-])c1	-0.94	1.27
O=C(Cn1nnc(-c2ccccc2)n1)N/N=C/c1cccc([N+](=O)[O-])c1O	0.81	0.01
O=C(Nc1nnc(SCc2c(Cl)cccc2Cl)s1)c1cccc([N+](=O)[O-])c1	0.22	0.23
O=C(Cc1ccccc1)N/N=C/c1cccc([N+](=O)[O-])c1	0.54	0.41
COc1cc([N+](=O)[O-])ccc1NC(=O)COC(=O)c1n[nH]c2ccccc12	0.67	0.02
NCCCC[C@@H]1NC(=O)c2cc([N+](=O)[O-])cc(F)c2NCCCC[C@@H](C(N)=O)NC(=O)[C@H](CCC(N)=O)NC1=O	0.61	0.76
O=[N+]([O-])c1ccc(O)c(C=Nc2ccc3nc(-c4ccccc4)[nH]c3c2)c1	0	0.03
COC(=O)c1cc(NS(=O)(=O)c2ccc(N3CCC(C)CC3)c([N+](=O)[O-])c2)cc(C(=O)OC)c1	-1.15	0.12
CC1CCCN(S(=O)(=O)c2ccc([N+](=O)[O-])cc2)C1 (stereo not given)	0	0.47

Going on with the list.
molecule	KCNQ2 enhance baseline	KCNQ2 enhance
COc1ccccc1N1CC(C)(C)C(=O)N(C(=O)c2ccc(C)cc2)C1=S	-1.22	1.82
COc1ccc(N2CCN(CCCNC(=O)C3(S(=O)(=O)c4ccc(Cl)cc4)CC3)CC2)cc1	-0.59	1.61
COc1cccc(C(=O)NCCN2C(=O)S/C(=C/c3cccs3)C2=O)c1OC	-0.02	0.06
Cc1c(C(=O)O)cccc1-n1c(C)cc(/C=N/Nc2ccc([N+](=O)[O-])cn2)c1C	-1.62	1.45
Cc1ccccc1OCCNC(=O)c1ccco1	-1.88	0.08
O=C(NC(Cc1ccc2c(c1)OCO2)C(=O)NC(Cc1ccccc1)C(=O)O)c1ccccc1 (stereo not given)	-0.99	0.03

Compound activity (PubChem)
